Bioassay records as filed in PubChem.
DUX4 txn inh: blocks DUX4-driven transcriptional activation | 293T-iDUX4 ZSCAN4-Gaussia luciferase reporter, 24 h; stronger effect = lower value | AID 1224904 | activity change, negative = inhibition, % (test concentration not listed) | actives 0.8% (n = 37,000);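 active = -10% or lower and over 25 points stronger than a control reporter; inconclusive = -10% or lower with a smaller gap; inactive = above -10%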;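 note: 0% = median of neutral control wells and -100% = median of positive control wells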
DUX4 txn inh difference: recorded beside DUX4 txn inh, whose call it bears; Gaussia minus Italica difference, %; measured here: selective DUX4 reporter inhibition;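 worked out from the two reporters; negative = selective loss of the DUX4 reporter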
DUX4 txn inh control: second read-out of DUX4 txn inh, no call of its own (marks repeat the call); activity change, negative = inhibition, %; measured here: Italica tet-on control reporter;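 0 = neutral control and -100 = positive control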
* hit, by the source's call; ? = inconclusive; / = not tested or not shown. Only part of the results is shown. The share of hits here may be higher or lower than overall.

SMILES	DUX4 txn inh	DUX4 txn inh difference	DUX4 txn inh control
COc1ccccc1-c1ccc(C2[C@@H]3CN(S(=O)(=O)c4ccc(F)cc4)C[C@H]2N3)cc1 (stereo partly specified)	?	24	-8.0
O=C(CC1CC1)N1[C@H](CO)[C@@H]2c3ccccc3N(S(=O)(=O)c3ccccc3F)C[C@@H]21	1	3	-1.6
C[C@H](CO)N1C[C@H](C)[C@H](CN(C)Cc2ccc(Oc3ccccc3)cc2)Oc2ccc(NC(=O)c3ccncc3)cc2C1=O	-2	0	-1.7
C[C@H]1CN([C@@H](C)CO)C(=O)Cc2cc(NC(=O)Nc3cccc4ccccc34)ccc2O[C@H]1CN(C)S(=O)(=O)c1ccc(Cl)cc1	-1	0	-1.0
COCCN(C[C@H]1N[C@H](CO)[C@@H]1c1ccc(-c2cccnc2)cc1)C(C)=O	0	-2	1.3
CC(C)[C@@H]1COCc2cnnn2CCC[C@H](C)C(=O)N1	-1	0	-1.0
O=C(NCCc1ccccc1)[C@H]1[C@H](CO)[C@H]2Cn3c(cccc3=O)[C@@H]1N2C(=O)C1CCC1	8	4	3.6
COc1ccc2c3c([nH]c2c1)[C@H](CO)N(C(=O)CN(C)C)CC31CCN(Cc2ccccc2Cl)CC1	?	/	/
CS(=O)(=O)N1[C@H](C#N)[C@@H](c2ccccc2-c2ccccc2)[C@@H]1CO	11	13	-1.8
O=C(C[C@H]1CC[C@@H]2[C@H](COC[C@H](O)CN2C(=O)c2cccnc2)O1)Nc1ccc(-c2ccccc2)cc1	-2	3	-4.4
CN1C(=O)c2cc(NC(=O)c3ccc4c(c3)OCO4)ccc2OC[C@@H]2O[C@@H](CC(=O)O)CC[C@H]21	-1	1	-2.9
CCNC(=O)[C@H]1[C@H](CO)[C@H]2Cn3c(ccc(-c4ccc(F)cc4)c3=O)[C@@H]1N2C(=O)c1ccccn1	-1	6	-7.0
CC(C)C#Cc1ccc([C@H]2[C@@H](C#N)N(C(=O)c3ccccn3)[C@@H]2CO)cc1	-6	-6	-0.1
C[C@H](NC(=O)C[C@@H]1CC[C@@H]2[C@H](COC[C@@H](O)CN2C(=O)Nc2cccc(Cl)c2)O1)c1ccccc1	-5	-7	2.1
COc1ccccc1C#Cc1ccc([C@H]2[C@@H](CO)N(C(=O)C3CCCCC3)[C@H]2C#N)cc1	-1	-1	-0.5
CN(C)C(=O)c1ccc(-c2ccc3c(c2)[C@H]2[C@H](CCN2C(=O)c2ccccn2)[C@H](CO)N3)cc1	0	-6	5.6
COc1cccc(S(=O)(=O)N2C[C@@H](O)COC[C@H]3O[C@@H](CC(=O)NCCCN4CCOCC4)CC[C@@H]32)c1	-3	-6	2.8
Cc1noc(C)c1NC(=O)N(C)C[C@H]1Oc2c(NC(=O)C3CCOCC3)cccc2C(=O)N([C@@H](C)CO)C[C@H]1C	-4	-1	-3.5
COc1ccc(-c2ccc([C@@H]3[C@H](CO)N4CCCCN(C(=O)c5ccc(F)cc5)C[C@@H]34)cc2)cc1	?	/	/
CCCNC(=O)Nc1ccc2c(c1)OC[C@@H](C)N(C(=O)c1ccccc1F)C[C@H](C)[C@@H](OC)CN(C)C2=O	0	-3	2.1
COCC(=O)N1[C@H](CO)[C@H](c2ccc(C3=CCCCC3)cc2)[C@@H]1C#N	-6	-1	-4.9
COc1ccc(S(=O)(=O)N2C[C@H](O)COC[C@H]3O[C@@H](CC(=O)NCc4ccc(Cl)c(Cl)c4)CC[C@@H]32)cc1	?	/	/
O=C(c1cccnc1)N1CC2(C1)[C@H](c1ccccc1)[C@@H](CO)N2Cc1cccnc1	15	14	1.7
C[C@H]1CC(=O)N[C@@H](c2ccccc2)C/C=C\C[C@H](c2ccccc2)NC1=O	0	0	0.6
COc1ccc(NC(=O)Nc2ccc3c(c2)[C@H]2C[C@H](CC(=O)NCc4ccncc4)O[C@@H](CO)[C@H]2O3)cc1	7	6	0.5
O=C(CC1CC1)N1[C@@H](CO)[C@H](c2ccccc2)C12CN(S(=O)(=O)c1ccccc1)C2	3	-2	5.6
COCC(=O)N1CC2(CN(Cc3nccs3)C2)c2c(n(C)c3cc(OC)ccc23)[C@@H]1CO	10	7	2.7
CC(C)c1cn(CC[C@@H]2CC[C@@H](NC(=O)Nc3cc(Cl)cc(Cl)c3)[C@H](CO)O2)nn1	?	/	/
C/C=C/c1ccc2c(c1)[C@H]1[C@H](CCN1C(=O)Cc1cccnc1)[C@H](CO)N2C	13	13	0.1
O=C(CC1CC1)N1CC(=O)N2[C@H](CO)[C@@H](c3ccc(C#Cc4cccc(F)c4)cc3)[C@H]2C1	?	/	/
COc1cccc(S(=O)(=O)N2CCCCN3[C@@H](CO)[C@@H](c4ccc(-c5cccnc5)cc4)[C@@H]3C2)c1	-1	-5	3.5
CO[C@@H](CN(C)Cc1nccs1)[C@@H](C)CN([C@H](C)CO)S(=O)(=O)c1ccc(F)cc1	0	1	-1.2
O=C(C[C@@H]1CC[C@@H]2[C@H](COC[C@H](O)CN2C(=O)c2ccc(F)cc2)O1)N1CCCCC1	3	6	-2.2
CC(C)(C)[S@](=O)N1Cc2cc(C(=O)NCCN3CCCC3)nc(-c3cccc(-c4ccc(C#N)cc4)c3)c2[C@@H]1CCO	1	2	-1.2
COc1ccc(-c2ccccc2[C@H]2[C@@H](C#N)N(C(=O)NC(C)C)[C@H]2CO)cc1	15	5	9.6
Cc1noc(C)c1NC(=O)N(C)C[C@H]1OCCCC[C@@H](C)Oc2ccc(N(C)C)cc2C(=O)N([C@H](C)CO)C[C@H]1C	0	1	-0.9

Individual results from the list.
Result for O=C(CC1CC1)N1[C@@H](CO)[C@H](c2ccccc2)C12CN(S(=O)(=O)c1ccccc1)C2 in DUX4 txn inh difference: -2
Result for COc1cccc(S(=O)(=O)N2CCCCN3[C@@H](CO)[C@@H](c4ccc(-c5cccnc5)cc4)[C@@H]3C2)c1 in DUX4 txn inh: -1
Result for C/C=C/c1ccc2c(c1)[C@H]1[C@H](CCN1C(=O)Cc1cccnc1)[C@H](CO)N2C in DUX4 txn inh: 13
Result for CC(C)(C)[S@](=O)N1Cc2cc(C(=O)NCCN3CCCC3)nc(-c3cccc(-c4ccc(C#N)cc4)c3)c2[C@@H]1CCO in DUX4 txn inh control: -1.2
Result for CO[C@@H](CN(C)Cc1nccs1)[C@@H](C)CN([C@H](C)CO)S(=O)(=O)c1ccc(F)cc1 in DUX4 txn inh difference: 1
Result for COCC(=O)N1CC2(CN(Cc3nccs3)C2)c2c(n(C)c3cc(OC)ccc23)[C@@H]1CO in DUX4 txn inh: 10

Given with two lines to a compound: part of the list above.
Value order: DUX4 txn inh, DUX4 txn inh difference, DUX4 txn inh control
> COc1ccc(-c2ccccc2[C@H]2[C@@H](C#N)N(C(=O)NC(C)C)[C@H]2CO)cc1
 : 15, 5, 9.6
> CC(C)(C)[S@](=O)N1Cc2cc(C(=O)NCCN3CCCC3)nc(-c3cccc(-c4ccc(C#N)cc4)c3)c2[C@@H]1CCO
 : 1, 2, -1.2
> COCC(=O)N1CC2(CN(Cc3nccs3)C2)c2c(n(C)c3cc(OC)ccc23)[C@@H]1CO
 : 10, 7, 2.7
> COc1cccc(S(=O)(=O)N2CCCCN3[C@@H](CO)[C@@H](c4ccc(-c5cccnc5)cc4)[C@@H]3C2)c1
 : -1, -5, 3.5

The results go on.
SMILES	DUX4 txn inh	DUX4 txn inh difference	DUX4 txn inh control
CCCNC(=O)C[C@H]1CC[C@H]2[C@H](COc3ccc(NC(=O)CC)cc3C(=O)N2C)O1	3	5	-1.8
CN(C)C(=O)c1ccc(-c2ccccc2[C@H]2[C@@H](C#N)N(C(=O)C3CCCCC3)[C@@H]2CO)cc1	6	1	4.9
COc1ccc2c3c(n(C)c2c1)[C@@H](CO)N(Cc1ccc2c(c1)OCO2)CC31CCN(C(=O)c2ccc3c(c2)OCO3)CC1	6	3	3.0
COc1ccc2c3c([nH]c2c1)[C@H](CO)N(C(C)=O)CC31CCN(S(=O)(=O)c2ccccc2)CC1	13	7	5.3
CCc1cnc(N2[C@H](C#N)[C@H](c3ccc(C4=CCCC4)cc3)[C@H]2CO)s1	1	-3	4.4
Cc1ccccc1NC(=O)Nc1ccc2c(c1)C(=O)N(C)[C@@H]1CC[C@@H](CC(=O)NCC3CC3)O[C@H]1CO2	-1	0	-1.6
C[C@H](CO)N1C[C@H](C)[C@@H](CN(C)C(=O)Nc2ccc(C(F)(F)F)cc2)Oc2ccc(NC(=O)C3CCCCC3)cc2C1=O	1	3	-1.4
Cc1ccc(S(=O)(=O)Nc2ccc3c(c2)C(=O)N([C@H](C)CO)C[C@H](C)[C@H](CN(C)S(C)(=O)=O)O3)cc1	-5	-1	-3.7
O=C(c1ccccn1)N1CC[C@@H]2[C@@H](CO)Nc3ccc(-c4ccccc4)cc3[C@@H]21	3	11	-7.6
COC(=O)[C@@H]1[C@@H](CO)[C@@H]2Cn3c(ccc(-c4ccccc4F)c3=O)[C@@H]2N1C(=O)CC1CC1	-1	-3	2.1
CO[C@H]1CN(C)C(=O)c2cc(C#N)ccc2OCC[C@@H]2CC[C@@H](OC)[C@H](CN(C)C(=O)[C@@H]1C)O2	1	2	-2.0
C[C@@H](O)C#Cc1ccc([C@H]2[C@@H](CO)N3CCCCN(C(=O)c4ccc5c(c4)OCO5)C[C@@H]23)cc1	22	13	9.0
COc1cccc(C#Cc2ccc([C@@H]3[C@@H](CO)N4C(=O)CN(C(=O)Cc5cccnc5)C[C@@H]34)cc2)c1	?	/	/
CCc1csc(N2[C@H](CO)[C@@H](c3ccc(-c4ccc(F)cc4)cc3)[C@@H]2C#N)n1	-7	-8	1.7
COc1ccccc1C(=O)Nc1ccc2c(c1)C(=O)N(C)C[C@@H](OC)[C@H](C)CN(C(C)=O)[C@H](C)CO2	-7	-4	-3.3
COc1ccc(NC(=O)N(C)C[C@H]2OCCCC[C@H](C)Oc3ccc(NC(=O)CCCN(C)C)cc3C(=O)N([C@@H](C)CO)C[C@@H]2C)cc1	3	-8	10
COc1ccc2c3c(n(C)c2c1)[C@H](CO)N(Cc1ccccc1F)CC31CN(C(=O)C2CCC2)C1	6	2	3.7
C[C@H]1CN([C@@H](C)CO)S(=O)(=O)c2ccc(-c3cccc(F)c3)cc2O[C@@H]1CN(C)S(=O)(=O)c1ccccc1	-5	-5	0.4
O=C(C[C@H]1C[C@@H]2c3cc(NC(=O)c4ccc5c(c4)OCO5)ccc3O[C@@H]2[C@@H](CO)O1)NCc1ccc(Oc2ccccc2)cc1	?	/	/
C[C@@H]1CN([C@H](C)CO)C(=O)c2c(c3ccccc3n2C)-c2ccccc2CO[C@@H]1CN(C)Cc1cccnc1	11	0	12
O=C(C[C@H]1CC[C@H]2[C@@H](COC[C@@H](O)CN2Cc2ccccc2F)O1)NC1CCC1	-1	-2	1.4
C[C@H]1CN([C@@H](C)CO)C(=O)c2c(c3ccccc3n2C)-c2ccccc2CO[C@H]1CN(C)C(=O)c1ccncc1	-9	12	-21
O=C(Nc1nccs1)[C@H]1[C@H](CO)[C@H]2Cn3c(cccc3=O)[C@H]2N1C(=O)C1CC1	3	-5	8.3
CC=Cc1ccc2n(c1=O)C[C@@H]1[C@@H](CO)[C@H](C(=O)NCC)N(Cc3cccc(F)c3)[C@H]21 (mixture of isomers)	1	1	-0.6
COc1ccc2c3c(n(C)c2c1)[C@@H](CO)N(Cc1ccccc1OC)CC31CN(C(=O)C2CC2)C1	3	-10	13
CN(C)CC#Cc1ccc([C@@H]2[C@H](CO)N3C(=O)CN(C(=O)Cc4ccccc4)C[C@@H]23)cc1	15	1	14
COc1ccccc1CN1[C@@H]2c3ccc(C4=CCCCC4)c(=O)n3C[C@H]1[C@H](CO)[C@H]2C(=O)N(C)C	-7	0	-6.3
COc1ccccc1C(=O)Nc1ccc2c(c1)C(=O)N(C)C[C@H](OC)[C@@H](C)CN(C(C)=O)[C@@H](C)CO2	-2	-10	8.5
C[C@@H](NC(=O)C[C@H]1CC[C@@H](NC(=O)Cc2ccccn2)[C@@H](CO)O1)c1ccccc1	14	13	1.7
COc1ccc(-c2ccc3n(c2=O)C[C@H]2[C@H](CO)[C@@H](C(=O)N(C)C)N(CC4CC4)[C@@H]32)cc1	-3	-3	-0.2
O=C(Nc1cccc(Cl)c1)N1C[C@H]2[C@@H](c3ccccc31)[C@@H](CO)N2Cc1cccnc1	1	-1	2.3
O=C(C1CCOCC1)N1CC[C@@H]2[C@H](CO)Nc3ccc(-c4ccc(F)cc4)cc3[C@@H]21	-5	0	-4.8
COc1cccc(NC(=O)Nc2ccc3c(c2)C(=O)N(C)[C@@H]2CC[C@@H](CC(=O)NCCc4ccccc4)O[C@@H]2CO3)c1	-6	-7	1.5
COCCNC(=O)C[C@H]1CC[C@@H]2[C@H](COc3ccc(NC(=O)Cc4ccccc4)cc3C(=O)N2C)O1	-1	-1	-0.2
O=C(O)C[C@H]1C[C@H]2c3cc(NC(=O)C4CCC4)ccc3O[C@H]2[C@@H](CO)O1	-2	-2	0.2
C[C@H](CO)N1C[C@H](C)[C@@H](CN(C)S(=O)(=O)c2cccc(C#N)c2)OCc2cnnn2CCCC1=O	2	3	-1.1
CCCC(=O)N1CC2(C1)CN(C(=O)CC)[C@H](CO)c1c2c2ccc(OC)cc2n1C	10	8	2.8
CC(=O)N1[C@@H](CO)[C@@H](c2ccccc2)C12CN(S(=O)(=O)c1ccccc1)C2	11	3	8.8
C[C@@H]1CCCCO[C@@H](CN(C)Cc2ccc(C(=O)O)cc2)[C@H](C)CN([C@@H](C)CO)C(=O)c2cc(N(C)C)ccc2O1	-2	-4	1.4
O=C(NCC[C@H]1CC[C@H](NC(=O)c2ccncc2)[C@@H](CO)O1)Nc1ccc(Cl)cc1	-1	-8	6.8
COCC(=O)N1CC2(C1)[C@H](c1ccc(-c3ccccc3)cc1)[C@@H](CO)N2C(C)=O	1	2	-1.9
CCS(=O)(=O)N1CC2(C1)[C@H](c1ccccc1)[C@H](CO)N2C(=O)C1CC1	2	-4	5.4
